Assay outcomes from PubChem.
LANA-nucl inh – LANA-nucleosome interaction inhibition; FITC-LANA1-23 / chicken nucleosome fluorescence polarization; active compounds read low; z-score (no concentration beside the values); 51,000 compounds, 0.3% hits;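 active = both repeat wells score below -2 in polarization z-score versus plate sample wells, excluding overly bright wells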;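 also: 100 nL library stock added to about 30 µL; numbers are from one replicate; some results filed as inactive read as strong as hits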
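Assay system: purified chicken nucleosomes with FITC-labelled LANA N-terminal peptide (1-23) / Probe or stimulus: 50 nM FITC-LANA1-23 probe / Compound dosing: pin-transferred compound, 100 nL / Times: compound with peptide–nucleosome mix 10–45 min at room temperature / Technique: fluorescence polarization, 480 nm excitation, 535 nm parallel and perpendicular emission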
Ab BasE inh – inhibitors of Acinetobacter baumannii siderophore enzyme BasE | inhibition, % (concentration not given with the values) | purified BasE, fluorescence polarization binding displacement | 84,000 compounds, 0.1% hits;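 active = both replicates above 25% with normal brightness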;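 also: 0% = negative plate control signal and 100% = positive plate control signal; stock transfer was 100 nL into about 30 µL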
* hit, by the source's call; x = not tested or not shown; & = joins results of further samples. This is a subset. The share of hits here may be higher or lower than overall.

SMILES	LANA-nucl inh	Ab BasE inh
CC(=O)Nc1ccc(S(=O)(=O)N2CCN(Cc3ccccc3Cl)CC2)cc1	1.2	0.4
Cc1ccc(N(Cc2ccco2)S(=O)c2ccc3ccccc3c2)cc1 (configuration not stated)	x	-2.5
COc1ccc(CCNC(=O)CSCc2n[nH]c(=O)[nH]2)cc1OC	0.326	1.2
CCOC(=O)C1CCN(C(=O)COC(=O)c2cccnc2Nc2ccccc2F)CC1	x	0.2
COc1ccccc1NC(=O)CN(Cc1ccco1)C(=O)c1ccc(-n2c(C)ccc2C)cc1	x	1.1
CN(C(=O)c1ccccc1)C1CCCCC1	x	0.8
CN(C)c1sc(C#N)cc1-c1ccccc1	-0.181	x
Cc1ccc(C(=O)C2=C(N)OC3=C(C(=O)CC(C)(C)C3)C2c2ccccc2)cc1 (configuration not stated)	x	1.7
CN(C)CCCNCc1ccco1	-0.82	-2.2
COc1cccc(NC(=O)C2C3C=CC(C4CC34)C2C(=O)O)c1 (configuration not stated)	2.25	-2.8
COc1ccc(Oc2ccc(C(F)(F)F)cc2NS(=O)(=O)c2cccc3nonc23)cc1	x	1.1
COc1ccc(N(C(=O)c2snc(C(N)=O)c2N)C(C(=O)NCc2ccc(F)cc2)c2ccc(C)o2)c(OC)c1 (configuration not stated)	-0.644	3.3
COc1cc(S(=O)(=O)N2CCC3(CC2)OCCO3)ccc1-n1cnnn1	-0.641	0.6
Cc1cc(Cl)ccc1NC(=O)CSc1nnc(/N=C/N(C)C)s1	-0.136	1.4
Cc1c(N=Nc2cnc(NC(=O)c3ccccc3)s2)c(=O)n(-c2ccccc2)n1C	x	0.2
N#C/C(=C/c1ccco1)c1ccc(Br)cc1	0.49	-4.3
O=S(=O)(N=P(C1CCCCC1)(N1CCOCC1)N1CCOCC1)c1ccccc1	x	3.0
COCC(=O)Oc1c(C)cc(Br)cc1C	-0.0305	4.5
CCOc1nc2cccc(C(=O)OC(C)OC(=O)OC3CCCCC3)c2n1Cc1ccc(-c2ccccc2-c2nn[nH]n2)cc1 (configuration not stated)	0.087&-0.305	3.0
Cc1cccc(-n2nc(C)c(C(=O)N3CCCCC3)c2-n2cccc2)c1	x	0.5
CNC(=O)CSc1cnc2ccccc2n1	-0.58	x
CCN(CC1COc2ccccc2O1)C(=O)Cc1coc2cc3c(cc12)CCC3 (configuration not stated)	x	-0.1
CCC(=O)NC(Nc1ccc(O)cc1)(C(F)(F)F)C(F)(F)F	x	3.4
CC(=O)N1CC(C(=O)Nc2ccc(S(=O)(=O)N3CCOCC3)cc2)Oc2ccccc21 (configuration not stated)	x	2.4
Cc1cc(N2CCN(C3CCCCC3)CC2)c2nncn2n1	-0.76	0.9
Next part
SMILES	LANA-nucl inh	Ab BasE inh
C=CCS(=O)(=O)Nc1ccccc1	0.019	-0.3
Cc1ccc(Sc2nc(C)cc(C)c2S(C)(=O)=O)cc1	0.996	x
Cc1cc(N2CCOCC2)ccc1C=C1C(=O)c2ccccc2C1=O	4.08	-0.1
O=C(Oc1c(C(=O)c2ccccc2)sc2ccccc12)c1ccco1	-0.147	0.7
CCS(=O)(=O)N1Cc2ccccc2CC1C(=O)N1CCc2ccccc21 (configuration not stated)	x	0.1
COCCNC(=O)C1CCC(Cn2c(=S)[nH]c3ccccc3c2=O)CC1 (configuration not stated)	-0.528	-2.6
O=C(OCC(=O)N1CCN(c2ccccc2)CC1)c1ccccn1	-0.519	2.1
COc1ccc(C(=O)c2ccccc2)cc1CN1CCOCC1	x	1.3
Cc1ccc(CNC(=O)c2cccn3c(=O)c4ccc(Cl)cc4nc23)o1	0.936	0.2
CCCCC(CC)CN1CNC(=S)NC1 (configuration not stated)	0.597	-0.1
CC(=O)N(Cc1cc2cc(C)ccc2nc1Cl)C1CCCC1	-0.137	-0.1
COc1cc2c(cc1OC)C(c1ccccc1C(=O)O)=NCC2	x	-0.5
CSc1nsc(NC(=O)Nc2ccccc2C(F)(F)F)n1	1.88	-5.3
O=C(O)/C=C1\NC(=O)c2ccccc21	0.42	0.2
CCOc1ncccc1C(=O)N1CCN(C(c2ccccc2)c2ccccc2)CC1	x	2.4
Cc1nnc(SCC(=O)N2CCOCC2)n1/N=C/c1ccc(Cl)cc1	x	-3.7
COc1ccccc1-n1ccnc1SCC(N)=O	0.335	1.4
O=C(NCC1OCCc2ccccc21)c1ccc(Br)cc1 (configuration not stated)	x	0.9
N#Cc1ccc(-c2ccc(F)cc2)n(CC(=O)N2CCC(C(N)=O)CC2)c1=O	2.53	-3.7
CCCCOC(=O)Nc1[nH]c(C)c(C(=O)OCC)c1C	-0.571	2.3
O=C(O)c1ccc(CN2CCCCC2)cc1	0.193	-1.9
O=C(CSc1ccccn1)N1CCc2ccccc21	-0.129	-0.1
O=C(NC(C(=O)O)c1ccccc1)c1ccccc1 (configuration not stated)	2.49	x
O=c1c2ccccc2[nH]c(=S)n1/N=C/c1ccccc1	-0.581	1.3
CCOc1cc(C(C2C(=O)CC(C)(C)CC2=O)C2C(=O)CC(C)(C)CC2=O)ccc1OCc1c(C)no[n+]1[O-]	x	6.9
Following part.
SMILES	LANA-nucl inh	Ab BasE inh
CCc1cccc(NC(=O)CN(C)Cc2ccccc2OC)c1	x	-1.1
CC1=CCC2C(=O)N(CCCC(=O)O)C(=O)C2C1 (configuration not stated)	0.171	1.6
COC(=O)c1ccc2[nH]c(C)cc(=O)c2c1	x	-1.1
CCCCN(C)S(=O)(=O)c1ccc(C(=O)Nc2nc3ccc4ccccc4c3s2)cc1	x	-0.7
CC(OC(=O)Cn1cnc2c1c(=O)n(C)c(=O)n2C)C(N)=O (configuration not stated)	x	0.0
C=CCC1C=CCC(CC=C)N1C(=O)CCC(=O)O (configuration not stated)	-0.485	1.4
CC1(C)CC(=O)C(C=Nc2cccc(NC3=C(C#N)C(=O)CC(C)(C)C3)c2)=C(O)C1	x	2.6
Cc1ccc(NC2=C/C(=N/S(=O)(=O)c3ccc(F)cc3)c3ccccc3C2=O)cc1C	x	3.4
C[C@H](CCC(=O)O)[C@H]1CC[C@H]2[C@@H]3C(=O)C[C@@H]4CC(=O)CC[C@]4(C)[C@H]3CC(=O)[C@]12C	3	x
O=C(/C(=C(\O)c1ccccc1)c1ncc[nH]1)c1ccccc1	x	-1.7
COc1ccc(N2C(=O)/C(=C\c3ccco3)N=C2SCC(=O)/C(C#N)=C(\C)N)cc1Cl	x	-27.2
COc1ccc(CNC(=S)NC(C)C)cc1OC	x	1.5
Cn1c(=O)cc(SCC(=O)N2CCCC2)c2ccc(Cl)cc21	-0.453	1.5
CN(C)C(=O)c1ccc(NCc2cc(=O)oc3cc(O)ccc23)cc1	x	1.4
C#CCn1c(-c2ccccc2)nc2ccccc21	0.749	-0.1
COc1ccc(CNCC(=O)N2CCN(C(=O)CNCc3ccc(OC)cc3)CC2)cc1	0.55	-15.8
CCCCC(=O)Nc1cccc(C(=O)N/N=C/c2ccco2)c1	0.163	-2.9
Cc1ccc(S(=O)(=O)N2CCN(C(=O)OC(C)C)CC2)cc1	x	0.8
CCN(CC)CCNc1nc2c(c(=O)[nH]c(=O)n2C)n1Cc1ccccc1Cl	-0.12	0.5
COCCn1c(Cc2ccccc2)nnc1SCC(=O)c1ccc2c(c1)CC(=O)N2	x	-0.5
COC(=O)C(Cc1ccc(O)cc1)N1Cc2ccccc2C1=O (configuration not stated)	0.466	x
CC(Sc1nnc(-c2cccnc2)n1N)C(=O)Nc1ccc2c(c1)OCCO2 (configuration not stated)	x	0.0
CC(=O)NCN1CCN(CNC(C)=O)CC1	-0.232	2.4
CC(C)NC(=O)CCn1c(=S)[nH]c2cc3c(cc2c1=O)OCO3	2.45	-3.8
CCOC(=O)c1ccc2c(c1)nc(C1CCN(S(=O)(=O)c3cccs3)CC1)n2CC	x	0.6
The results go on.
SMILES	LANA-nucl inh	Ab BasE inh
O=C(CSc1ncccn1)Nc1ccc2c(c1)CCC2	x	0.3
CCOc1ccc(O)c(C(=O)C(F)(F)F)c1	x	0.4
C=CCn1c(SCC(=O)N2CCNC2=O)nc2scc(C3CC3)c2c1=O	x	-18.3
COC(=O)C1c2sc(=O)[nH]c2SC2C(=O)N(c3ccc(Br)cc3)C(=O)C21 (configuration not stated)	x	-5.4
COc1ccc(C2=NN(C(=O)c3cccnc3)C(c3ccccc3O)C2)cc1 (configuration not stated)	x	-9.2
CCOC(=O)c1nnn2c1nc(SCC(N)=O)c1ccccc12	x	1.1
COc1ccc(S(=O)(=O)N(C)c2ccc(OCC(=O)Nc3cc(C)on3)cc2)cc1	x	0.7
COc1ccc(C(c2nnnn2CC2CCCO2)N2CCN(c3ccc(F)cc3)CC2)cc1OC (configuration not stated)	-0.666	-0.9
COc1ccc2c(c1)CCc1sc(NC(=O)c3ccco3)nc1-2	0.283	8.9
CCn1c(C(=O)O)c(CC(=O)NC2CCCCCC2)c2ccccc21	x	1.7
Nc1ccc2nc(SCc3ccccc3Cl)sc2c1	x	-2.2
O=C(N=S1CCN(c2ncc(C(F)(F)F)cc2Cl)CC1)Nc1ccc(Cl)cc1	-0.588	0.8
Cc1ccccc1NC(=O)c1cc2ccccc2cc1O	x	-0.5
COc1ccc(C(=O)NC(C(=O)N2CCN(c3ccccc3O)CC2)C(C)C)cc1 (configuration not stated)	x	0.2
O=C(Oc1cccc(-c2cnc3ccccc3n2)c1)c1ccco1	x	-0.7
Fc1ccc(NC(=S)N2CCCCC2CCN2CCOCC2)cc1 (configuration not stated)	x	0.2
O=C(Cc1csc2ccc(Cl)cc12)OCc1ccccc1	x	2.2
CCC(CC)C1C(C#N)=C(N)SC(N)=C1C#N	x	-2.2
CC(C)(C)NC(=S)N/N=C/c1ccc(O)cc1	-0.67	2.2
CCc1ccc(C2CC(=O)Nc3c2c(C)nn3-c2nc3ccccc3s2)cc1 (configuration not stated)	2.63	0.2
OC(Cn1cncn1)(Cn1cncn1)c1ccc(F)cc1F	-0.205&0.328&0.244	-0.9
CC(C)(C)NC(=O)CCn1nc(-c2ccccc2)c2ccccc2c1=O	0.793	4.5
FC(F)(F)c1ccc(Oc2ccc(Oc3ccc(C(F)(F)F)cn3)cc2)nc1	x	1.5
CCCCn1c(N)c(N(C(=O)c2ccc(Cl)c(Cl)c2)C2CCCC2)c(=O)[nH]c1=O	x	2.2
C=C(C)CN(CC)C(=O)CSc1nnc(Cc2cccc3ccccc23)n1N	x	-1.5

14 structures from above, arranged by heavy-atom count, ascending:
SMILES	LANA-nucl inh	Ab BasE inh
CCOc1ccc(O)c(C(=O)C(F)(F)F)c1	x	0.4
CC(C)(C)NC(=S)N/N=C/c1ccc(O)cc1	-0.67	2.2
Nc1ccc2nc(SCc3ccccc3Cl)sc2c1	x	-2.2
O=C(CSc1ncccn1)Nc1ccc2c(c1)CCC2	x	0.3
O=C(Cc1csc2ccc(Cl)cc12)OCc1ccccc1	x	2.2
OC(Cn1cncn1)(Cn1cncn1)c1ccc(F)cc1F	-0.205&0.328&0.244	-0.9
CCOC(=O)c1nnn2c1nc(SCC(N)=O)c1ccccc12	x	1.1
Fc1ccc(NC(=S)N2CCCCC2CCN2CCOCC2)cc1 (configuration not stated)	x	0.2
CCn1c(C(=O)O)c(CC(=O)NC2CCCCCC2)c2ccccc21	x	1.7
CC(C)(C)NC(=O)CCn1nc(-c2ccccc2)c2ccccc2c1=O	0.793	4.5
COc1ccc(C2=NN(C(=O)c3cccnc3)C(c3ccccc3O)C2)cc1 (configuration not stated)	x	-9.2
CCCCn1c(N)c(N(C(=O)c2ccc(Cl)c(Cl)c2)C2CCCC2)c(=O)[nH]c1=O	x	2.2
COc1ccc(S(=O)(=O)N(C)c2ccc(OCC(=O)Nc3cc(C)on3)cc2)cc1	x	0.7
COc1ccc(C(c2nnnn2CC2CCCO2)N2CCN(c3ccc(F)cc3)CC2)cc1OC (configuration not stated)	-0.666	-0.9

(list continues)
SMILES	LANA-nucl inh	Ab BasE inh
CCOC(=O)c1sc(N2N=C(C)/C(=C\c3ccco3)C2=O)nc1C	x	0.8
CC(C)(CNC(=O)c1cc(=O)[nH]c2ccccc12)N1CCOCC1	x	-0.7
COc1ccc(-c2cc(C(=O)N3CC(C)OC(C)C3)c3ccccc3n2)cc1OC (configuration not stated)	x	-7.3
CN(C)S(=O)(=O)c1ccc(C(=O)NCC2CCCO2)cc1 (configuration not stated)	x	-1.2
CCc1cc(=O)oc2c(C)c(OC)ccc12	x	0.0
Nc1nc2c(c(=O)[nH]1)C(c1ccccc1)C1=C(N2)c2ccccc2C1=O (configuration not stated)	0.992	-0.5
Cc1cc(C)cc(NC(=O)Cn2c(=O)oc3cc(S(=O)(=O)N4CCCCCC4)ccc32)c1	-0.326	-0.1
O=c1[nH]cnc(O)c1Cc1c(O)nc[nH]c1=O	-0.598	0.5
NC(=O)COC(=O)/C=C/c1ccc(Cl)cc1	x	1.1
CC(=O)Nc1ncc2c(n1)CC(c1ccccc1)CC2=O (configuration not stated)	x	2.0
Nc1nnc(N)c2ccccc12	x	0.8
CC(C(=O)Nc1ccc(S(=O)(=O)N2CCCC2)cc1)N1CCc2ccccc2C1 (configuration not stated)	x	1.3
N#CC(C#N)=CNc1nn(-c2ccccc2)cc1C#N	x	1.1
Cc1cc(C(=O)Cn2cnc3ccsc3c2=O)c(C)n1CCC1=CCCCC1	x	0.7
CCOC(=O)c1c(NC(=O)C(C)Sc2nnc(CNC(=O)c3ccco3)n2-c2cc(C)ccc2C)sc2c1CCC2 (configuration not stated)	0.504	-1.1
Cc1nn(-c2ccccc2)c2sc(C(=O)N3CCN(C(=O)c4ccccc4)CC3)cc12	x	-0.5
Cc1cc(C)cc(Oc2c(F)c(F)c(F)c(F)c2F)c1	0.373	-0.7
Cc1ccccc1C(=O)N1CCC(C(=O)NC2CCCCCC2)CC1	0.742	3.5
Brc1ccc(-c2ccc(Br)s2)s1	x	0.6
